Screens as filed in PubChem.
PrP UTR inh – inhibition of PrP 5' UTR reporter expression; cell-based PrP 5' UTR mRNA reporter, plate reader; inhibition, % (test concentration not listed); 340,000 compounds, 0.35% hits; AID 488862;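 active = every replicate at 50% or more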;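 note: 0 = median of the neutral control wells; tested in H4 reporter cells; numbers are from one replicate; inactives centre near -14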
BJeLR lethal – BJeLR cell viability loss | 300,000 compounds, 0.17% hits | inhibition, % (test concentration not listed) | BJeLR (HRASV12) viability, CellTiter-Glo ATP luminescence, 48 h; reference of the scale not given here;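 active = replicate mean above 50%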;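 note: 50 nL library stock added to about 25 µL; numbers are from one replicate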
RN4220 kill – kills Staphylococcus aureus RN4220; inhibition, % (test concentration not listed); 330,000 compounds, 0.33% hits; S. aureus RN4220 growth, OD600, 16 h; AID 1259311;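 active = z-score of -3 or lower and OD600 up to 0.18 on both plates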;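 note: plate controls were untreated cells for no effect and reference antibiotic for full effect; stock transfer was 100 nL into about 80 µL; one replicate is shown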
ugtP null kill – compounds lethal to S. aureus RN4220 ugtP deletion mutant; growth inhibition, % (concentration not given with the values); 330,000 compounds, 0.54% hits; OD600 growth, 16 h; some inactives read as strong as hits;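 active = z-score under -3 and OD600 up to 0.15 on both plates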;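 note: plate controls were untreated wells for no effect and antibiotic for full effect; wells of about 80 µL received 100 nL stock; the first replicate is given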
Mtb hypoxia inh – Mtb hypoxia fluorescent reporter inhibition | M. tuberculosis hypoxia-regulated fluorescent reporter, fluorescence | fluorescence inhibition, % (concentration not given with the values) | 300,000 compounds, 0.1% hits;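 active = 35 to 45% if threefold the growth effect, above 45% if 1.5-fold the growth effect; inactive = the rest, general growth blockers included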;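 note: wells of about 50 µL received 100 nL stock; 0% = vehicle wells and 100% = reference inhibitor wells; whole bacteria with a GFP reporter of the hypoxia response; strong numbers were not always called active; many hits fall short of the cut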
Bead autofluor – compound fluorescence in toxin protease inhibitor counterscreen; compound autofluorescence counterscreen, microsphere flow cytometry; active compounds read high; fluorescence intensity (no concentration beside the values); 360,000 compounds, 3.1% hits; AID 624483;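 active = at least 3 SD above the mean of all compounds, about 16000 in these data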;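 note: 100 nL of 1 mM stock went into each well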
Mtb hypoxia inh growth – recorded beside Mtb hypoxia inh, whose call it bears; growth inhibition, %; measured here: M. tuberculosis growth (absorbance);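 0% = vehicle and 100% = reference antibiotic; read after six days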
Starred values were filed as active, the others as inactive; nt = not tested or not shown. Rows were taken by chance; overall some 4% were active at least once.

molecule	PrP UTR inh	BJeLR lethal	RN4220 kill	ugtP null kill	Mtb hypoxia inh	Mtb hypoxia inh growth	Bead autofluor
O=C(Nc1ccc(N2C(=O)C3C4C=CC(C4)C3C2=O)cc1Cl)c1cccs1 (stereo not drawn)	-73	3	5.9	4	5	-7	4599
O=C1OC(c2cc(Br)c(O)c(Br)c2)c2ccccc21 (stereo not drawn)	0	nt	13	12	8	6	2957
CCCSc1ncnc2[nH]ncc12	-18	nt	5.6	25	13	3	3027
O=c1c2sccc2n(Cc2ccc(F)cc2)c(=O)n1-c1ccc(F)cc1	-15	2	-9.4	11	6	-7	2543
O=S(=O)(Nc1nc(SCc2ccc(Cl)cc2)n[nH]1)c1ccccc1	-7	0	9.4	-20	12	8	nt
CN1CCN(C(=O)c2cc3sc4ccccc4c3s2)CC1	-87	4	-1.3	-2	-10	-6	3853
O=C(NN=Cc1ccc[nH]1)c1cncc(Br)c1	nt	nt	5.4	16	13	-2	nt
CCC(O)c1cc2c(cc1NC(=O)c1cccs1)OCCO2 (stereo not drawn)	-16	-5	11	-4	nt	nt	3543
CC(C)(C)NS(=O)(=O)c1ccc(NC(=S)NC(=O)C2CCC2)cc1	-17	6	nt	nt	nt	nt	5314
COc1ccc2cc(C)c3nnc(SCc4cccnc4)n3c2c1	-11	0	1.3	-4	3	7	4712
COc1ccc(OC)c(NC=C2C(=O)OC3(CCCCC3)OC2=O)c1	-9	7	6.0	1	1	-5	18401*
CCOC(=O)C1(Cc2ccccc2C)CCCN(C(=O)CCC(=O)OC)C1 (stereo not drawn)	-15	-5	8.9	6	15	11	3580
N#C/C(=C\c1cccc([N+](=O)[O-])c1)C(=O)NCc1ccc(Cl)cc1	-15	nt	-3.2	15	6	12	4570
COc1ccc(NC(=O)c2cc3c(=O)n(C)c4ccccc4c3n2C)cc1OC	-9	4	13	-20	6	7	5607
O=C(/C=C/c1ccc(Cl)cc1Cl)NCCSc1ccccc1	-28	-5	6.2	-8	4	6	2012
COc1ccc(NS(=O)(=O)c2cn(C)nc2C)cc1	-11	3	4.4	8	5	-1	nt
CCCC1=Nc2cc(C(=O)NCc3ccco3)ccc2Sc2ccccc21	-37	29	-0.4	-5	6	7	7310
COCCCNC(=S)Nc1cccc(S(=O)(=O)NC2=NCCC2)c1	-10	-4	1.4	6	11	6	4399
COc1ccccc1N1CCN(C(=O)c2cc(-c3ccc(Cl)cc3)on2)CC1	-6	1	5.5	-18	-7	7	24151*
COc1ccc(C(=O)Nc2nc3ccccc3s2)cc1OC	-88	9	1.6	-6	4	-2	2267
Cc1cccc(N2CCN(C(=O)c3csc4ccccc34)CC2C)c1 (stereo not drawn)	-32	22	-1.3	2	4	-9	2524
CN(C)CCSc1nc(-c2ccccc2)nc2c1CCCC2	nt	-5	2.1	2	21	7	6354
COc1ccc(OCc2cc(C(=O)N(C)C3CCOCC3)no2)c2ccccc12	-34	-5	3.3	-8	1	-1	4509
O=C(CNCc1ccco1)Nc1cc(S(=O)(=O)N2CCOCC2)ccc1N1CCOCC1	-16	nt	7.3	5	11	12	4182
COc1ccc(-c2cc(C(F)(F)F)nc(S(=O)(=O)CCCC(=O)Nc3cccc(O)c3)n2)cc1OC	nt	-28	8.0	14	21	1	4828
COc1ccc2[nH]c(C(=O)N/N=C/c3ccc(OC)c(O)c3)cc2c1	39	41	nt	nt	nt	nt	3720
Cc1ccc(OCCC(=O)Nc2ccc3c(c2)OCCCO3)cc1	-18	nt	1.7	3	0	4	8191
O=C(OCc1ccccc1)N1CCC2CC1c1cc(-c3ccc(F)cc3)ccc12 (stereo not drawn)	-17	nt	1.0	47	-16	6	3940
COc1ccc(C=NOCC(=O)N2CCCC2)c(OC)c1	nt	nt	4.5	2	-1	6	nt
CC/C(O)=C(/C#N)c1nnc2n1CCCCC2	-9	7	4.3	6	2	8	5992

Quoted at random: four entries already listed
molecule	PrP UTR inh	BJeLR lethal	RN4220 kill	ugtP null kill	Mtb hypoxia inh	Mtb hypoxia inh growth	Bead autofluor
O=C(OCc1ccccc1)N1CCC2CC1c1cc(-c3ccc(F)cc3)ccc12 (stereo not drawn)	-17	nt	1.0	47	-16	6	3940
Cc1cccc(N2CCN(C(=O)c3csc4ccccc34)CC2C)c1 (stereo not drawn)	-32	22	-1.3	2	4	-9	2524
COc1ccccc1N1CCN(C(=O)c2cc(-c3ccc(Cl)cc3)on2)CC1	-6	1	5.5	-18	-7	7	24151*
COc1ccc(C=NOCC(=O)N2CCCC2)c(OC)c1	nt	nt	4.5	2	-1	6	nt

(cont.)
molecule	PrP UTR inh	BJeLR lethal	RN4220 kill	ugtP null kill	Mtb hypoxia inh	Mtb hypoxia inh growth	Bead autofluor
NS(=O)(=O)c1ccc(NC(=O)c2cc(=O)c3ccccc3o2)cc1	-35	4	6.4	9	3	6	3441
CC(C)C1C(=O)NC(=S)N1S(=O)(=O)c1ccc(C(C)(C)C)cc1 (stereo not drawn)	-3	-4	12	-14	nt	nt	2420
CCOC(=O)C1=NNC2(c3ccccc3)C(=O)N(c3cccc(Br)c3)C(=O)C12 (stereo not drawn)	2	5	1.8	-1	1	3	2400
CC(C)(C)NC(=O)CCN(/N=C/c1ccccc1O)C1=NS(=O)(=O)c2ccccc21	-22	-2	nt	nt	nt	nt	3780
CC(=O)Nc1ccc(C23CC4CC(CC(C4)C2)C3)cc1	-45	10	0.8	2	4	-5	4031
Cc1cc(C)n(CC(=O)NN=Cc2ccccn2)n1	nt	nt	3.8	-3	5	1	nt
N=c1c2c(-c3ccccc3)c(-c3ccccc3)oc2ncn1CCCN1CCOCC1	-17	-2	2.2	3	20	25	4190
COCCn1c(=O)[nH]c2cc(C(=O)N3CCN(c4ccccc4)CC3)ccc2c1=O	-30	-5	0.0	7	5	-10	3796
NS(=O)(=O)c1ccc(NC(=O)c2ccc3c(c2)CCCC3)cc1	-25	-11	6.7	18	-1	1	4664
CC1CCCC(C)N1C(=O)CSCc1ccc(Cl)cc1 (stereo not drawn)	-47	-13	3.9	10	5	5	15531
CC(=O)Nc1ccc(S(=O)(=O)N2CCc3cc4c(cc3C2C)OCCCO4)cc1 (stereo not drawn)	-9	2	4.8	-5	3	3	6402
Cc1cc(NC(=O)Nc2ccc(Cl)cc2)n(C)n1	-18	1	3.3	0	-3	0	3919
COc1ccc(-c2nn(-c3ccccc3)cc2CNC(=O)c2cccc([N+](=O)[O-])c2)cc1	-13	-2	0.3	-12	5	14	2499
CS(=O)(=O)N(CC(=O)NCCSCc1ccco1)c1ccc2c(c1)OCO2	1	0	2.9	5	-1	-7	3404
O=c1c(CN2CCN(Cc3ccccc3F)C(CCO)C2)coc2ccccc12 (stereo not drawn)	-19	-2	2.0	17	2	8	3696

A stretch from the list above, as a working copy:
molecule	PrP UTR inh	BJeLR lethal	RN4220 kill	ugtP null kill	Mtb hypoxia inh	Mtb hypoxia inh growth	Bead autofluor
COc1ccc(-c2nn(-c3ccccc3)cc2CNC(=O)c2cccc([N+](=O)[O-])c2)cc1	-13	-2	0.3	-12	5	14	2499
CS(=O)(=O)N(CC(=O)NCCSCc1ccco1)c1ccc2c(c1)OCO2	1	0	2.9	5	-1	-7	3404
O=c1c(CN2CCN(Cc3ccccc3F)C(CCO)C2)coc2ccccc12 (stereo not drawn)	-19	-2	2.0	17	2	8	3696

New compounds follow:
molecule	PrP UTR inh	BJeLR lethal	RN4220 kill	ugtP null kill	Mtb hypoxia inh	Mtb hypoxia inh growth	Bead autofluor
COc1ccc(C2CCCN2C(=S)Nc2cccc(C)c2)cc1OC (stereo not drawn)	-9	7	-0.9	0	6	-6	4322
CC(C)C(=O)Nc1c(-c2cccc(Cl)c2)c(=O)c2ccccc2n1C	-11	8	12	2	2	3	3944
COc1ccc(-c2cccc(C3CC=CC4C3C(=O)N(Cc3ccccc3)C4c3ccc(C(F)(F)F)cc3)c2)cc1 (stereo not drawn)	-18	1	16	6	16	9	4088
O=C(Cc1cn2ccsc2n1)OCc1nc2ccccc2s1	nt	-14	5.0	-7	nt	nt	nt
COc1ccc(NC(=O)CN(C)C(=O)c2cn(-c3ccccc3)nc2-c2ccc(OC)cc2)cc1	-12	nt	0.8	3	0	-2	6630
COc1ccc(NC(=O)COC(=O)c2n[nH]c3ccccc23)c(OC)c1	nt	nt	2.4	-3	8	10	5184
COc1ccc(N2CCN(C(=S)NCCc3ccccc3)CC2)cc1	-27	-4	-5.5	-8	nt	nt	2741
Cc1ccc2cc(CN(Cc3cccs3)C(=O)c3ccco3)c3nnnn3c2c1C	nt	7	3.6	-4	6	2	nt
CCOC(=O)C1(C(=O)O)NC(=O)CC1c1ccccc1 (stereo not drawn)	-17	3	4.6	9	10	3	6325
COc1ccccc1OCC(=O)NCCSCc1cccc(Cl)c1	-13	4	3.8	8	-7	1	2181
Cc1ccc(NC(=O)c2cc(N3C(=O)C4CCCCC4C3=O)ccc2N2CCOCC2)cc1 (stereo not drawn)	-18	0	1.6	3	0	11	4364
Cc1ccc(CN2CCCN(Cc3ccc(C)cc3)S2(=O)=O)cc1	-16	4	-0.2	24	5	8	3314
COc1ccc(N2CCN(C(=O)c3ccc(C)c(NC(=O)c4ccco4)c3)CC2)cc1	-21	-12	-1.8	5	6	5	5272
COc1cccc(CNC(=O)c2nnn(-c3ccc(OC(F)(F)F)cc3)c2N)c1	-13	-1	-1.1	-8	-3	16	9719
COC(=O)C(C(=O)NCC1CCCO1)C1CCCCCC1 (stereo not drawn)	-19	-5	5.8	-1	nt	nt	2838
COc1cccc(-c2cnc(OC(C)(C)C)nc2OC(C)(C)C)c1	-16	-18	-2.1	99*	3	3	9818
N/C(=N\OC(=O)N1CCOCC1)c1ccccc1	-10	10	0.7	-2	2	9	12979
CC(C)(C)c1cc(NC(=O)CCSc2nnc3ccccn23)cc(C(C)(C)C)c1	-23	5	12	-2	3	6	5701
Cc1c(C(=O)Nc2ccc(S(=O)(=O)N3CCOCC3)cc2)cccc1[N+](=O)[O-]	-19	-4	2.6	4	6	0	3806
O=S(=O)(Cc1ccccc1)N1CCC(c2nc(-c3cccs3)no2)CC1	-19	10	1.4	5	5	13	18652*
COc1cc(Cl)ccc1NC(=O)COc1ccccc1C(=O)N1CCN(c2ccc(O)cc2)CC1	-21	-2	1.1	2	nt	nt	2408
Cc1cc(Br)c(NC(=O)CN2CC=C(c3ccccc3)CC2)c(Br)c1	-25	8	20	20	-3	10	6027
CCOC(=O)N1CCN(Cc2nc3cc(NC(=O)C(C)C)ccc3n2C)CC1	-53	-6	5.3	21	12	10	3488
NNC(=S)NC1CCCCCCCCCCC1	-14	6	-6.9	-12	-1	2	5602
COCCCNC(=O)C1Cc2cc(S(=O)(=O)N3CCCC3)ccc2N1C(C)=O (stereo not drawn)	13	-10	1.3	1	-1	4	5361
